HIV Rev-RRE inh: HIV Rev-RRE protein-RNA interaction inhibition; Rev peptide-RRE RNA binding, FRET; inhibition, % at 8 µM; 97,000 compounds, 0.79% hits; AID 704;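 active means inhibition above the screen-wide mean plus 3 SD, cut at about 35% in these data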;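 further: 0% = median DMSO wells and 100% = median Neomycin B control wells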
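Assay system: Rev peptide and RRE RNA, both fluorescently labelled; times: 5 min preincubation and 15 min binding, 25 °C; detection: FRET, ex 480 nm, em 540 and 671 nm; read-out basis: % inhibition from 671/540 nm acceptor-to-donor ratio, scaled between controls; benchmarks: DMSO low control, neomycin B high control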
PLK1 PBD inh: Plk1 (human) PBD binding inhibition | P53350 | Plk1 PBD phosphopeptide binding, fluorescence polarization | inhibition, %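 (tested at about 20 µM)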 | 97,000 compounds, 0.13% hits; in the data active means inhibition above about 34%, passing the limit was not always enough
PTPN22 act: activators of human LYP (PTPN22) phosphatase | Q9Y2R2 | recombinant LYP, DiFMUP fluorescence; 0 = plate median, 100 = signal doubled | activation, % at 2 µM | 96,000 compounds, 0.11% hits | AID 697;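 active means activation at 2 µM above a set limit, the mean plus 5 SD, cut at about 37% in these data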
Candida biofilm: kills Candida albicans biofilms | C. albicans biofilm + clotrimazole, Alamar Blue | inhibition, % at 6 µM | 85,000 compounds, 0.14% hits | AID 834;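 active means inhibition above 20%; inactive means inhibition below 20%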;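 further: preformed 24 hr biofilms exposed to compound for 48 hr; 0% = biofilm without compound and 100% = blank killed by clotrimazole plus chlorhexidine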
LYP inh 2: blocks human PTPN22 phosphatase activity. recombinant LYP catalytic domain, DiFMUP fluorescence. inhibition, % at 2 µM. 96,000 compounds, 0.21% hits;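 active means inhibition at 2 µM at or above a set limit, the screen mean plus 3 SD, cut at about 24% in these data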;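 further: 0% = DMSO with enzyme and 100% = enzyme fully blocked by orthovanadate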
EphB4 antag: blocks human EphB4 binding to ephrin-B2; EphB4 LBD / TNYL-RAW-Alexa532 peptide, fluorescence polarization; inhibition, % at 7 µM; AID 720; P54760; 97,000 compounds, 0.15% hits;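 active means inhibition above the screen-wide mean inhibition plus 3 SD, cut at about 15% in these data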;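 further: 0% = DMSO wells and 100% = excess unlabeled TNYL-RAW peptide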
Target sequence (P54760 whole entry, looked up, the tested form may be a part): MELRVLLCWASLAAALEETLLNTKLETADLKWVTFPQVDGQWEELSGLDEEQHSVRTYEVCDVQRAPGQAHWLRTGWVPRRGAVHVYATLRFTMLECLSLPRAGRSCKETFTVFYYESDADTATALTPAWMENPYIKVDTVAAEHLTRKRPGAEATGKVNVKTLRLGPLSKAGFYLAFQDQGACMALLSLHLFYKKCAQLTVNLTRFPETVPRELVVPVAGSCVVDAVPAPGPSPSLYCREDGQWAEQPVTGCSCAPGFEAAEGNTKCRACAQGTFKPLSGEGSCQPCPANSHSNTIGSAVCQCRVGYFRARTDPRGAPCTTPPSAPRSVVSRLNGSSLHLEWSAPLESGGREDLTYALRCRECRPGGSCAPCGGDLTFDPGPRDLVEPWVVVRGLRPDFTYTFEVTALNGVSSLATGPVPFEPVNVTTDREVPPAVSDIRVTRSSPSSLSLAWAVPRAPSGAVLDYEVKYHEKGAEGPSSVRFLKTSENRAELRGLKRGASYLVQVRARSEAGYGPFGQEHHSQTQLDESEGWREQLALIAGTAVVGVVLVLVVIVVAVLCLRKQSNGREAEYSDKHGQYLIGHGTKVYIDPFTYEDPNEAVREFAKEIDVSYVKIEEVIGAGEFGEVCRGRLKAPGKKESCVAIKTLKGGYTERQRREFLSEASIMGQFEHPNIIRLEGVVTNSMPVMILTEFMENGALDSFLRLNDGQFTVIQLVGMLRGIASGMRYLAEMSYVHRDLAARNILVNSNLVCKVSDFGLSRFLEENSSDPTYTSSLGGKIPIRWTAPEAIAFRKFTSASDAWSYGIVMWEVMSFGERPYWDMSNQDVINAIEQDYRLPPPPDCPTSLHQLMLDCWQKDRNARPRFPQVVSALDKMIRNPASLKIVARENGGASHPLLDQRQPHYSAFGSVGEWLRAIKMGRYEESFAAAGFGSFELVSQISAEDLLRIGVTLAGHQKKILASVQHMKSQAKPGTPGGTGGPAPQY
PLK1 kinase inh: inhibitors of human PLK1 kinase; P53350; recombinant PLK1 kinase, TR-FRET peptide phosphorylation; inhibition, % at 10 µM; 97,000 compounds, 0.53% hits;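 active means inhibition of 50% or more in the single-concentration screen; inactive means inhibition below 50%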;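 further: 0% = DMSO max control and 100% = H-89 dihydrochloride min control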
Active calls of the source: *; . = not tested or not shown. Some of the compounds tested, so the mix of outcomes need not match the whole.

#1 Cc1cc(=O)[nH]c(SCC(=O)Nc2ccc(S(=O)(=O)N3CCOCC3)cc2)n1
#2 NS(=O)(=O)c1ccc(CCNC(=O)CSc2ccccc2)cc1
#3 CC(=O)Nc1ccc(S(=O)(=O)N2CCN(C(=O)c3cccnc3)CC2)cc1
#4 O=C(/C=C/c1ccccc1)N1CCN(Cc2nc3ccccc3c(=O)[nH]2)CC1
#5 CC(C)(C)c1ccc(C(=O)Nc2ccc(NC(=O)c3ccco3)cc2)cc1
#6 Cc1c(Br)c([N+](=O)[O-])nn1C(C)C(=O)Nc1ccc2c(c1)OCO2 (stereo not given)
#7 COc1ccccc1CNC(=O)Cn1nnc(-c2ccncc2)n1
#8 Cc1nc2nc(C)c(CCC(=O)NC(C)c3ccc4c(c3)OCCO4)c(C)n2n1 (stereo not given)
assay / compound,1,2,3,4,5,6,7,8
HIV Rev-RRE inh,4,5,10,4,-3,1,7,6
PLK1 PBD inh,21,-10,10,9,6,-23,-27,-15
PTPN22 act,4,-4,-11,8,0,1,-5,7
Candida biofilm,7,.,4,7,-2,.,-1,3
LYP inh 2,-3,8,14,-11,2,1,3,-4
EphB4 antag,-2,-7,4,3,2,-7,2,-7
PLK1 kinase inh,-8,-2,-5,-8,-15,-12,10,-4

#9 COc1ccc(C(=O)NCC2OCCc3ccccc32)cc1 (stereo not given)
#10 CCOc1ccc(N(CCC#N)S(=O)(=O)c2ccc(OC)cc2)cc1
#11 COc1c2c(nc3ccccc13)OC(C(C)(O)CO)C2 (stereo not given)
#12 Nc1nnnn1/N=C\c1ccc(Cl)c([N+](=O)[O-])c1
#13 O=C(NCCN1CCOCC1)c1ccccc1[N+](=O)[O-]
#14 Cn1c(CCN2CCN(c3ccccc3)CC2)nc2cc(NC(=O)c3ccco3)ccc21
#15 COc1cc2ccccc2cc1C(=O)Nc1ccc(Cc2ccncc2)cc1
#16 COc1ccc(/C=N/NC(=O)Cc2csc(Nc3cccc(C(F)(F)F)c3)n2)c(OC)c1
assay / compound,9,10,11,12,13,14,15,16
HIV Rev-RRE inh,6,-3,8,2,0,8,2,8
PLK1 PBD inh,-7,6,6,-12,20,10,-21,24
PTPN22 act,8,2,-3,-7,10,-5,6,5
Candida biofilm,2,0,3,.,.,2,.,.
LYP inh 2,-7,-4,5,5,-6,4,-4,0
EphB4 antag,9,1,-3,-4,-7,-4,5,4
PLK1 kinase inh,-7,-7,-4,1,-12,-9,3,-17

#17 CCOc1ccc2nc(SCC)[nH]c2c1
#18 C[C@H](NC(=O)NC1CCCc2ccccc21)C(=O)O (stereo not given in full)
#19 COc1ccc(-c2cccc(C(=O)Nc3ccc(OC)c(OC)c3)c2)cc1
#20 Cc1ccc(NC(=O)C(C)N2C(=O)C3C4CC(C(Br)C4Br)C3C2=O)cc1 (stereo not given)
#21 Cc1ccccc1NC(=O)Cc1c(O)c2ccccc2[nH]c1=O
#22 Cc1cccc(Nc2ccccc2C(=O)OCC(=O)N2CCOCC2)c1C
#23 CCOC(=O)c1c(C)[nH]c(C(=O)CSc2nnc(-c3cccs3)n2Cc2ccccc2)c1C
#24 c1ccc(-c2nc(NCCCn3ccnc3)c3oc4ccccc4c3n2)cc1
assay / compound,17,18,19,20,21,22,23,24
HIV Rev-RRE inh,1,5,2,4,4,9,6,4
PLK1 PBD inh,26,-25,-19,10,-5,-14,-8,8
PTPN22 act,14,12,16,8,0,3,-3,-4
Candida biofilm,7,6,.,.,.,6,7,7
LYP inh 2,-11,-10,-11,-3,-2,-4,0,6
EphB4 antag,1,1,0,-6,-4,7,1,-3
PLK1 kinase inh,-3,-13,-10,-6,-6,-13,-4,-1

#25 Cc1ccc(/C=N\NC(=O)C2COc3cc4ccccc4cc3O2)o1 (stereo not given)
#26 Cc1c(Cl)cccc1N1C(=O)C(N2C(=O)c3cccc([N+](=O)[O-])c3C2=O)C1c1cccs1 (stereo not given)
#27 CCOC(=O)C=C1CCN(c2ncc(C(F)(F)F)cc2Cl)CC1
#28 COCCN(C(=O)C(C)C)c1nnc(-c2ccc(C)cc2)s1
#29 O=C(O)C1CCN(S(=O)(=O)c2cccnc2)CC1
#30 Cc1ccc(NC(=O)CN(Cc2ccccc2)S(C)(=O)=O)cc1C
#31 CCCn1c(Sc2nc3c(c(=O)[nH]c(=O)n3C)n2CCC)nc2c1c(=O)[nH]c(=O)n2C
#32 CCOC(=O)C1=C(c2ccccc2)NC(=S)NC1c1cc([N+](=O)[O-])ccc1OC (stereo not given)
assay / compound,25,26,27,28,29,30,31,32
HIV Rev-RRE inh,2,3,11,8,-1,3,-3,-6
PLK1 PBD inh,-11,5,2,-6,-2,-20,-26,15
PTPN22 act,0,-4,3,-6,2,9,6,1
Candida biofilm,.,-2,.,1,4,10,.,.
LYP inh 2,5,6,3,8,-6,-6,-1,1
EphB4 antag,6,-2,-3,9,-1,11,3,-8
PLK1 kinase inh,-8,-13,-6,-2,-15,-15,-8,-11

#33 CCn1c(N)c(C(=O)NCc2cccnc2)sc1=S
#34 CN(Cc1cc2ccccc2[nH]c1=O)S(C)(=O)=O
#35 O=C(O)CSc1nnc(Cn2c(=O)sc3ccccc32)n1-c1cccc(Cl)c1
#36 Cc1c(NC(=O)OCCNC(=O)Nc2ccccc2)sc(=S)n1C
#37 COCCCNC(=O)CCS(=O)(=O)Cc1ccc(C)cc1
#38 CCn1c(C)[n+](CCCS(=O)(=O)[O-])c2cc(Cl)c(Cl)cc21
#39 O=C(NC(=S)NC1CCSC1=O)c1ccccc1Cl (stereo not given)
#40 CC(C)NC(=O)c1noc2cc([N+](=O)[O-])ccc12
assay / compound,33,34,35,36,37,38,39,40
HIV Rev-RRE inh,7,5,-2,-1,4,0,3,4
PLK1 PBD inh,-17,25,-14,6,24,-1,19,11
PTPN22 act,-12,3,3,1,5,5,3,8
Candida biofilm,2,-2,4,8,.,.,.,.
LYP inh 2,13,-6,-6,-3,-6,-1,-1,-4
EphB4 antag,3,4,-6,-2,3,-5,-2,0
PLK1 kinase inh,-14,-7,5,3,-13,-16,-9,-11

#41 O=C(Nc1nc2ccc(Cl)cc2s1)C1CCCO1 (stereo not given)
#42 O=C(c1ccc(Br)cc1)c1cc(-c2ccccn2)c(N2CCOCC2)s1
#43 CC(CC(=O)NC1CCCC1)c1ccccc1 (stereo not given)
#44 CCC(=O)Nc1ccc(S(=O)(=O)N2CCN(c3ccc(F)cc3)CC2)cc1
#45 CCCCCOc1ccc(NC(=O)C(=O)NCCC2=CCCCC2)cc1
#46 CCS(=O)(=O)NCC(c1cccnc1)N1CCN(c2ccccc2F)CC1 (stereo not given)
#47 Cc1cc(-c2ccc(/C=N/n3cnnc3)o2)c([N+](=O)[O-])cc1C
#48 Cc1cc(NC(=O)c2c([N+](=O)[O-])cnn2C)no1
assay / compound,41,42,43,44,45,46,47,48
HIV Rev-RRE inh,-13,4,8,1,7,0,10,9
PLK1 PBD inh,2,27,-2,-6,1,-12,14,-21
PTPN22 act,6,-2,-13,-9,-4,0,-13,0
Candida biofilm,3,.,-3,2,13,1,.,.
LYP inh 2,-4,2,14,12,6,0,15,2
EphB4 antag,-4,-2,4,-4,3,-1,3,3
PLK1 kinase inh,-1,-3,2,-3,-9,-4,-11,-12

Retrieved by compound from the entries so far, six records:
#41 O=C(Nc1nc2ccc(Cl)cc2s1)C1CCCO1 (stereo not given)
#32 CCOC(=O)C1=C(c2ccccc2)NC(=S)NC1c1cc([N+](=O)[O-])ccc1OC (stereo not given)
#11 COc1c2c(nc3ccccc13)OC(C(C)(O)CO)C2 (stereo not given)
#33 CCn1c(N)c(C(=O)NCc2cccnc2)sc1=S
#10 CCOc1ccc(N(CCC#N)S(=O)(=O)c2ccc(OC)cc2)cc1
#5 CC(C)(C)c1ccc(C(=O)Nc2ccc(NC(=O)c3ccco3)cc2)cc1
assay / compound,41,32,11,33,10,5
HIV Rev-RRE inh,-13,-6,8,7,-3,-3
PLK1 PBD inh,2,15,6,-17,6,6
PTPN22 act,6,1,-3,-12,2,0
Candida biofilm,3,.,3,2,0,-2
LYP inh 2,-4,1,5,13,-4,2
EphB4 antag,-4,-8,-3,3,1,2
PLK1 kinase inh,-1,-11,-4,-14,-7,-15

Additional results follow:
#49 COc1cc(NS(C)(=O)=O)c(OC)cc1NC(=O)c1cccc(F)c1
#50 CCCCNC(=O)CC(=O)Nc1ccccc1C(=O)O
#51 CC1(C)CC(=O)C(C2C3=C(CC(C)(C)CC3=O)Oc3ccccc32)=C(O)C1 (stereo not given)
#52 COc1ccc(NC(=O)c2ccc3c(=O)n(Cc4ccco4)c(=S)[nH]c3c2)c(OC)c1
#53 c1ccc(-c2nc3ccccn3c2NCc2ccc3c(c2)OCO3)cc1
#54 Cc1nc(NS(=O)(=O)c2ccccc2)sc1NC(=O)OC(C)C
#55 CCOc1ccccc1N1CN(CC)CNC1=S
#56 Cc1cccc(NC(=S)NCc2ccccn2)c1
assay / compound,49,50,51,52,53,54,55,56
HIV Rev-RRE inh,5,4,0,4,5,5,3,3
PLK1 PBD inh,3,-6,-10,6,-28,14,0,-9
PTPN22 act,-3,-6,-2,-2,0,-2,12,0
Candida biofilm,7,4,4,8,6,.,.,.
LYP inh 2,4,4,4,1,2,0,-8,1
EphB4 antag,4,-15,-4,-1,-8,2,2,-9
PLK1 kinase inh,8,3,-7,-16,-14,-4,-14,-11

#57 COc1ccc(NC2=Nc3cccc4cccc2c34)cc1OC
#58 Cn1c(SCC(=O)NCc2ccc3c(c2)OCO3)nnc1-c1cc2ccccc2cc1O
#59 CCn1c(CNc2ccc(OC)cc2)nnc1SCC(=O)N1CCCc2ccccc21
#60 CC(C)=CCc1c(C)nc2ccccc2c1C(=O)O
#61 N#Cc1nc(-c2ccc(OCc3ccccc3Cl)cc2)oc1NCCCn1ccnc1
#62 O=C(c1ccc(COc2ccccc2Br)o1)N1CCN(c2ccccn2)CC1
#63 COc1ccccc1-n1c(CNC(=O)c2ccco2)nnc1SCC(=O)Nc1ccc(F)cc1
#64 O=C(N/N=C/c1ccc(O)c(O)c1)c1ccc(CSc2cccc3cccnc23)cc1
#65 COC(=O)C1=C(C(=O)OC)C(c2cc(Cl)ccc2O)c2sc(=O)[nH]c2S1 (stereo not given)
#66 N/C(=N\c1nc2c(c(=O)[nH]1)CCC2)Nc1cccc2ccccc12
assay / compound,57,58,59,60,61,62,63,64,65,66
HIV Rev-RRE inh,36,1,-4,2,-1,2,5,1,2,-13
PLK1 PBD inh,-26,-7,-7,9,7,-18,1,4,-12,-29
PTPN22 act,-13,-7,13,13,-18,-7,-1,-6,1,-7
Candida biofilm,.,4,10,11,.,6,10,7,.,.
LYP inh 2,17,7,-14,-12,17,8,0,8,0,11
EphB4 antag,7,8,-1,1,-10,-5,2,-3,-2,0
PLK1 kinase inh,-1,-19,-12,-8,1,-3,-7,24,-4,-4
